# High-throughput results: PubChem BioAssay, several laboratories
# Autofluor counter: counter-screen for toxin protease inhibitors: compound fluorescence. compound autofluorescence counterscreen, microsphere flow cytometry; hits give high values. fluorescence intensity (test concentration not listed). AID 624483. 3.1% of 360,000 active;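 active = at least 3 SD above the mean of all compounds, about 16000 in these data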;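 note: 100 nL of 1 mM stock went into each well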
# BJeLR lethal: BJeLR cell viability loss | inhibition, % (concentration not given with the values) | 0.17% of 300,000 active | BJeLR (HRASV12) viability, CellTiter-Glo ATP luminescence, 48 h; reference of the scale not given here;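 active = replicate mean above 50%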;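 note: 50 nL library stock added to about 25 µL; numbers are from one replicate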
# Mtb hypoxia inh: Mtb hypoxia fluorescent reporter inhibition | M. tuberculosis hypoxia-regulated fluorescent reporter, fluorescence | fluorescence inhibition, % (no concentration beside the values) | 0.1% of 300,000 active | AID 1159583;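 active = 35 to 45% if threefold the growth effect, above 45% if 1.5-fold the growth effect; inactive = the rest, general growth blockers included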;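 note: wells of about 50 µL received 100 nL stock; 0% = vehicle wells and 100% = reference inhibitor wells; whole bacteria with a GFP reporter of the hypoxia response; strong numbers were not always called active; many hits fall short of the cut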
# ugtP null kill: kills S. aureus RN4220 lacking UgtP. S. aureus RN4220 ugtP deletion, OD600 growth, 16 h; some inactives read as strong as hits. growth inhibition, % (test concentration not listed). 0.54% of 330,000 active. AID 1259309;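 active = z-score under -3 and OD600 up to 0.15 on both plates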;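 note: plate controls were untreated wells for no effect and antibiotic for full effect; wells of about 80 µL received 100 nL stock; the first replicate is given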
# RN4220 kill: S. aureus RN4220 growth inhibition. OD600, 16 h. inhibition, % (no concentration beside the values). 0.33% of 330,000 active. AID 1259311;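 active = z-score of -3 or lower and OD600 up to 0.18 on both plates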;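 note: plate controls were untreated cells for no effect and reference antibiotic for full effect; stock transfer was 100 nL into about 80 µL; one replicate is shown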
# PrP UTR inh: suppresses PrP 5' UTR mRNA reporter expression; cell-based PrP 5' UTR mRNA reporter, plate reader; inhibition, % (no concentration beside the values); 0.35% of 340,000 active; AID 488862;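 active = every replicate at 50% or more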;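 note: 0 = median of the neutral control wells; tested in H4 reporter cells; numbers are from one replicate; inactives centre near -14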
# Mtb hypoxia inh growth: second read-out of Mtb hypoxia inh, no call of its own (marks repeat the call); growth inhibition, %; measured here: M. tuberculosis growth (absorbance);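 0% = vehicle and 100% = reference antibiotic; read after six days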
# * hit, by the source's call; . = not tested or not shown.
SMILES,Autofluor counter,BJeLR lethal,Mtb hypoxia inh,Mtb hypoxia inh growth,ugtP null kill,RN4220 kill,PrP UTR inh
Cc1cc(=O)oc2cc(OCC(=O)N3c4ccccc4NC(=O)C3(C)C)ccc12,3779,.,-12,0,-1,-0.3,-1
CC1CCc2c(sc3nc(C4CC4)nc(N4CCN(C(=O)c5ccco5)CC4)c23)C1 (stereo not drawn),2721,-8,.,.,16,-14,-25
Cc1c(NC(=O)C(C)Oc2ccc(Br)cc2Cl)c(=O)n(-c2ccccc2)n1C (stereo not drawn),6097,-1,-2,1,7,0.5,-7
CCn1nc(C)c(CNC(=O)Nc2ccccc2C(=O)OC)c1C,3433,-10,2,0,4,8.3,-47
COC(=O)c1cccc(C(=O)N2CCC(CO)(Cc3ccccc3Cl)CC2)c1,3980,7,13,4,5,1.0,-30
CCCCC1(COC(=O)CCC(=O)O)C(=O)N(c2ccccc2)N(c2ccccc2)C1=O,4364,.,-1,-1,-3,4.7,-9
COc1ccc(/C=C2\N=C(c3ccccc3Cl)NC2=O)cc1,4198,36,8,-3,-16,-3.6,.
CC(C)CNC(=O)C1(N2C(=O)c3ccccc3C2=O)CCCC1,2777,.,11,4,4,5.2,-21
COc1ccc(Oc2coc3c(CN(C)C)c(O)ccc3c2=O)cc1,2342,6,.,.,3,2.9,-24
COC(=O)COc1cc(OCC(=O)OC)c2c(-c3ccccc3)cc(=O)oc2c1,3484,18,-7,4,12,4.6,-36
COc1cc(C(=O)NN=C2CCS(=O)(=O)c3ccc(F)cc32)cc(OC)c1OC,.,.,12,2,-3,1.8,.
COc1c(C)cccc1C(=O)Nc1cc(Cl)ccc1N1CCOCC1,2949,3,.,.,11,-0.8,-8
CC(C)(C)C(=O)Nc1ccccc1N1CCN(c2ccc(F)cc2)CC1,3228,-12,-1,-6,1,-4.1,8
Cc1csc(NC(=O)Cc2c[nH]c3ccccc23)n1,2573,9,11,13,-4,-1.5,-89
CC(=O)NC(=S)Nc1cccc2ccc(C)nc12,5963,10,-17,2,-5,3.9,-15
Cn1nnc(NC(=O)COc2ccc(C3CCCCC3)cc2)n1,4769,0,.,.,0,3.5,-15
O=C(N/N=C/c1ccc2nccnc2c1)c1ccncc1,3892,-4,.,.,.,.,-21
COc1ccc(N(CC(=O)N2CCN(Cc3ccccc3)CC2)S(=O)(=O)c2ccccc2)cc1,5949,3,5,0,3,3.7,-25
O=C(NCCc1ccccc1)C(c1ccccc1F)N(C(=O)c1csnn1)C1CC1 (stereo not drawn),6242,-8,4,9,8,-0.4,-25
O=C1NC(=NCc2ccccc2)S/C1=C/c1ccc(O)cc1,2797,-6,10,10,3,7.1,2
C#CCN(Cc1ccco1)C(=O)c1cc(COc2ccc(F)cc2Cl)on1,4985,2,-2,-5,-1,4.5,-20
COc1ccc(/C=N/NC(=O)CN2CCCCCCC2)c(C)c1C,3402,-6,.,.,.,.,-23
COc1cccc(N2CCN(c3c4c(nc5ncnn35)CCC4)CC2)c1,22408*,27,3,19,6,3.9,-15
CCC(C)NS(=O)(=O)c1ccc(S(=O)(=O)N2CC=C(c3ccc(F)cc3)CC2)cc1 (stereo not drawn),2182,2,9,3,3,16,-20
COC(=O)c1cc(S(=O)(=O)Nc2cccc(S(N)(=O)=O)c2)oc1C,3211,-2,-7,5,-3,-1.4,-12
Cc1ccc2nsnc2c1NC(=O)CCl,4117,-5,25,20,-4,5.4,-15
Cn1cccc1/C=N/N1CCN(Cc2ccc(Cl)cc2)CC1,6432,6,.,.,.,.,-11
COC(=O)C(C(=O)OC)N1C(=O)CCC1=O,8849,2,5,6,2,5.8,-10
O=C(O)c1ccc(N2CCS(=O)(=O)CC2)cc1,3897,.,13,5,11,2.2,-10
CC(=O)N1CCN(S(=O)(=O)c2ccc(C)c([N+](=O)[O-])c2)C1C(C)C (stereo not drawn),4066,-1,-4,7,-5,-1.0,-14
O=C(NC1C2CCCC1CN(C1CC1)C2)c1ccc(Cl)cc1 (stereo not drawn),3888,12,17,18,75,0.6,7
Cc1c(CCC(=O)NCCCn2ccnc2)c(=O)oc2cc3oc4c(c3cc12)CCCC4,4022,7,.,.,-15,2.8,-9
C/C(=N\Nc1ccc(Cl)cc1)c1c(O)cc(C)oc1=O,4248,-3,.,.,.,.,-36
CC(=O)Nc1ccc(C=NNC(=O)c2cccc(S(=O)(=O)N3CCOCC3)c2)cc1,.,.,14,4,11,3.8,.
CC(C)C(C)(NC(=O)c1cccn(Cc2ccc3c(c2)OC(F)(F)O3)c1=O)C(N)=O (stereo not drawn),2100,2,-8,-3,-4,-3.3,-20
S=C(NCC1CCCCC1)Nc1ccc(Oc2ccccc2)cc1,2253,-1,0,8,-4,4.5,2
CC(C)=CCN1CCN(Cc2cccc3nccnc23)CC1CCO (stereo not drawn),4414,12,14,15,6,2.2,-6
CC1CC(C)(C)NC(=S)N1CCC(=O)Nc1ccc2c(c1)OCCO2 (stereo not drawn),3985,-2,5,2,6,9.4,-1
COC(=O)c1ccc(CO/N=C(\NC(C)=O)c2nonc2NC(C)=O)cc1,9960,0,8,3,5,5.2,-8
Cc1ccc2c(c1)N(C(=O)CCC(=O)NCc1cccnc1)CC(C)O2 (stereo not drawn),5781,-7,4,5,-6,-3.9,-11
CCC[C@@H]1CCCO[C@@](C(=O)NCc2cc(C)n(C)n2)(C(F)(F)F)C1,3870,8,.,.,.,.,-17
O=[N+]([O-])C1=CC=C2C(=NC3(CCCCC3)N2O)C1=NCCc1ccccc1,4668,4,0,-1,-2,-1.2,-17
Cc1ccc(/C=C2/NC(=O)N(Cc3ccccc3)C2=O)o1,2566,8,15,10,-3,3.4,-13
COc1cccc(CNC(=O)CN(C)S(=O)(=O)c2ccc3c(c2)n(C)c(=O)c(=O)n3C)c1,6357,2,11,3,-5,4.3,-32
Cc1ccc(NC(=O)CCNS(=O)(=O)c2ccc3[nH]c(=O)oc3c2)c(C)c1,5433,8,9,6,16,3.5,-25
CCCNc1nc(-c2ccccc2)c(C(=O)OCC)cc1C#N,3473,41,.,.,14,-7.6,-1
COc1cc(C(=O)N2CCN(C(=O)Cc3ccccc3)CC2)cc(OC)c1OC,4904,-10,.,.,0,3.4,-31
S=c1[nH]nc(-c2cc(-c3ccccc3)n[nH]2)n1N=Cc1ccc(Cl)cc1,.,.,2,0,-29,-19,.
O=C(Nc1ccc(Br)cn1)c1ccc([N+](=O)[O-])o1,2553,-22,23,17,44,64,-14
CC(=O)N1CCN(C(=O)C2(NC(=O)Nc3ccccc3Cl)CCCCC2)CC1,3848,-7,3,-5,1,0.5,-30
CN(CC(=O)Nc1ccccc1Br)C(=O)c1n[nH]c2ccccc12,5850,.,-10,-3,3,0.8,12
Fc1cccc(CSc2ccc3nnc(-c4ccccn4)n3n2)c1,3334,6,11,4,6,10,3
COc1cc(OC)cc(C(=O)NCCc2cnc[nH]2)c1,3734,3,-8,-6,-8,-0.6,-4
Cc1cc2c(NC(=O)CCCC(=O)O)cccc2nn1,3312,0,-3,-1,13,2.7,-4
Cc1ccc(N=Cc2ccc(N(C)C)cc2)cc1,5494,14,.,.,-8,1.6,-14
Cc1cccc(NC(=S)N2CCN(c3cc(C)ccc3C)CC2)c1,2154,-8,-1,2,29,1.4,-12
COc1cc(/C=C/C(=O)NC(C)(C)C)ccc1OCc1ccccc1,2242,-14,2,4,13,5.3,-11
N=c1c2c(n(Cc3ccc(Cl)c(Cl)c3)c3c1CCC3)CCCC2,2315,49,.,.,99*,91*,-5
CCOc1ccccc1C1c2[nH]c3ccccc3c2C[C@H]2C(=O)N(C3CC3)CC(=O)N12 (stereo partly drawn),3789,-2,-20,-3,1,-1.6,-28
CCC(=O)Nc1cccc(NC(=O)CSc2nnc(-c3ccc(NS(C)(=O)=O)cc3)n2CC)c1,15365,2,11,6,7,6.2,-8
# (next part)
SMILES,Autofluor counter,BJeLR lethal,Mtb hypoxia inh,Mtb hypoxia inh growth,ugtP null kill,RN4220 kill,PrP UTR inh
COc1ccc(S(=O)(=O)Cc2ccc(C(=O)N3CCN(c4cc(C)ccc4C)CC3)o2)cc1,5605,4,9,5,0,9.7,-3
CC(C)(C)NC(=O)C(c1c[nH]c2ccccc12)N(C(=O)Cn1nnc(-c2ccc(Cl)cc2)n1)c1ccccc1F (stereo not drawn),2094,-22,-6,0,-22,-4.3,-10
O=[N+]([O-])c1ccc(OS(=O)(=O)Cc2ccccc2)cc1,3182,-1,0,6,-3,4.7,-21
CCOc1ccccc1NC(=O)NC(C)c1ccc2c(c1)OCO2 (stereo not drawn),5918,8,.,.,.,.,-13
CCc1nnc(NC(=O)c2ccc(NS(=O)(=O)c3ccccc3)cc2)s1,9809,-1,2,2,7,6.6,11
CCOC(=O)C(C)Sc1ccc2nnc(-c3ccc(F)cc3)n2n1 (stereo not drawn),9890,.,6,9,-4,1.5,0
CCC1CCCCN1CCNS(=O)(=O)c1ccc2c(c1)oc(=O)n2C (stereo not drawn),6911,1,-2,5,-2,-4.7,-24
COc1ccc(NS(=O)(=O)c2cccc(C(=O)OCC(=O)N3CCN(c4ccc(OC)cc4)CC3)c2)cc1,5142,-4,5,5,-11,2.5,-31
COc1ccc(C(CNC(=O)Nc2ccccc2)N2CCN(C)CC2)cc1 (stereo not drawn),4725,0,5,1,10,2.3,-18
Cc1ccccc1CN1CCN(S(=O)(=O)c2cccs2)CC1,4616,-2,8,10,-2,5.3,-20
COc1ccc(NC(=O)Cc2nnc(SCC(=O)Nc3nccs3)n2C)cc1,4095,-1,-7,-10,-5,-3.1,-3
Cc1cccc([N+](=O)[O-])c1NC(=O)COC(=O)C1CCCO1 (stereo not drawn),3869,.,4,6,2,1.4,7
C/C(=N\O)C(C)(C)Nc1cccc(F)c1,4477,-5,.,.,.,.,-24
CCOc1ccc2ccccc2c1C=NNC(=O)OC,.,.,1,1,20,6.1,.
CC(O)C(C(=O)N1CCN(C(=O)OC(C)(C)C)CC1)n1cc(CCCCNC(=O)OC(C)(C)C)nn1 (stereo not drawn),.,.,3,9,0,2.5,.
O=C(/C=C/NNC(=O)c1cccc(Br)c1)c1cccc(Br)c1,7869,7,1,7,-1,-2.1,-28
COc1cccc(OC)c1C(=O)NC(=S)NCc1ccccc1,3961,-18,11,5,16,8.8,-17
COc1ccc(NC(=S)N2CCNC(=O)C2CC(=O)Nc2cccc(Cl)c2C)cc1 (stereo not drawn),2578,-4,-3,4,-3,2.3,-16
CCN(CC)c1ccc(C(=O)NNC(=O)CN2C(=O)NC3(CCCCC3)C2=O)cc1,6251,0,8,-5,11,0.7,-33
CC(C)CC1=C/C(=C/c2ccc(-c3ccccc3)o2)C(=O)O1,3120,-3,2,7,4,4.5,-17

# Single records, as listed above:
# C/C(=N\O)C(C)(C)Nc1cccc(F)c1 as listed: Autofluor counter: 4477; BJeLR lethal: -5; Mtb hypoxia inh: .; Mtb hypoxia inh growth: .; ugtP null kill: .; RN4220 kill: .; PrP UTR inh: -24
# CC(O)C(C(=O)N1CCN(C(=O)OC(C)(C)C)CC1)n1cc(CCCCNC(=O)OC(C)(C)C)nn1 (stereo not drawn) as listed: Autofluor counter: .; BJeLR lethal: .; Mtb hypoxia inh: 3; Mtb hypoxia inh growth: 9; ugtP null kill: 0; RN4220 kill: 2.5; PrP UTR inh: .
# CC(C)CC1=C/C(=C/c2ccc(-c3ccccc3)o2)C(=O)O1 as listed: Autofluor counter: 3120; BJeLR lethal: -3; Mtb hypoxia inh: 2; Mtb hypoxia inh growth: 7; ugtP null kill: 4; RN4220 kill: 4.5; PrP UTR inh: -17

# Further records:
SMILES,Autofluor counter,BJeLR lethal,Mtb hypoxia inh,Mtb hypoxia inh growth,ugtP null kill,RN4220 kill,PrP UTR inh
O=C(CS(=O)(=O)c1ccccc1)N1CCc2ccccc21,2354,4,-2,5,4,8.5,-49
NS(=O)(=O)c1ccc(CCNC2CC(=O)N(CCc3ccccc3)C2=O)cc1 (stereo not drawn),7354,.,.,.,0,4.5,10
CCc1ccc(N(C(=O)c2ccco2)C(C(=O)NC2CCCC2)c2cccnc2)cc1 (stereo not drawn),4411,4,3,-6,3,2.5,-15
NC(N)=N/N=C/c1ccc(OCc2ccc(Cl)cc2Cl)cc1,11751,5,.,.,.,.,-48
CN(C)c1ccc(C=NNC(=O)C(=O)/C=C2\NC3(CCCC3)Cc3ccccc32)cc1,.,.,1,16,3,-6.8,.
